Screening data deposited in PubChem BioAssay by National Center for Advancing Translational Sciences (NCATS).
Cruzain inh Det: cruzain (T. cruzi) inhibition with detergent. purified cruzain, Z-FR-AMC fluorescence, 0.01% Triton. AID 1478. 200,000 tested, 0.43% active. Potency, µM, for inactives: max response, negative = inhibition, hits mostly inhibitors. P25779; active means well fitted curve in the direction sought with a large enough effect; inconclusive means small, poorly fitted or top-dose-only effect, or another doubt; inactive means no such curve, though single readings can be large; an effect the other way counts as inactive or inconclusive;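 further: plate controls were neutral wells for no effect and buffer without enzyme for full effect; nearly all actives have a fitted effect of over 40% in size; top concentration of the series not given in the record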
Target sequence (P25779 123-467 limits assumed): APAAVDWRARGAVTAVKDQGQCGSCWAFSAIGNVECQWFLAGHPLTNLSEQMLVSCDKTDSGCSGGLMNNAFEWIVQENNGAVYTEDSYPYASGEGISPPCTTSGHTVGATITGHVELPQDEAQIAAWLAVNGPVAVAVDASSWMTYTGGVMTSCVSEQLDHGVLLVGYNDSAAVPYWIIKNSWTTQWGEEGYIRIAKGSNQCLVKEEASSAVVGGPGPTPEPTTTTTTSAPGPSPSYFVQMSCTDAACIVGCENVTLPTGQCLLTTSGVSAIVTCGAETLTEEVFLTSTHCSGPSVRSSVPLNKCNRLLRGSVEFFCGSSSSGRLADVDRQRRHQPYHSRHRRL
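Enzyme 1.5 nM, Z-FR-AMC 2 uM, NaOAc 100 mM pH 5.5, DTT 5 mM, Triton X-100 0.01%; 15 min RT compound preincubation; kinetic ex360/em450, 60 s delta.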
NS1 inh: influenza NS1 inhibition; S. cerevisiae slowed by influenza A NS1, growth recovery by OD600; Potency, µM (highest dose often 46.1 µM), without a hit: at the top dose activity, positive = more growth; 270,000 tested, 0.4% active; AID 2326; further: actives are rising curves; nearly all actives have a fitted effect of over 50% in size
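Read-out: OD600 growth recovery of NS1-expressing budding yeast. Cells grown overnight at 30C in -URA glucose medium, washed, resuspended and diluted 1:100 in 2% galactose assay medium, pH 6.0. Same strain lacking NS1 served as positive control.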
StopGo reporter: FMDV 2A StopGo reporter, luciferase signal | human cells with a luciferase reporter of 2A StopGo recoding; control for the full effect not named in the record | Potency, µM (titrated, usually from 57.9 µM), inactives show at the highest dose signal change, negative = less light | 410,000 tested, 1.2% active | AID 1159524; active = well fitted falling curve with a large enough effect; inconclusive = small, poorly fitted or top-dose-only effect; inactive = no such curve, though single readings can be large or run the other way; tested in HEK293T cells; further: on the % scale 0 is the no-effect control and ±100 the full control effect; nearly all actives have a fitted effect of over 45% in size; luciferase light after 4 h
Cruzain noTriton: cruzain (T. cruzi) inhibition without detergent | purified cruzain, Z-FR-AMC fluorescence, no detergent | Potency, µM, without a hit: max response, negative = inhibition, most hits filed as inhibitors | P25779 | AID 1476 | 200,000 tested, 2.3% active; active means well fitted curve in the direction sought with a large enough effect; inconclusive means small, poorly fitted or top-dose-only effect, or another doubt; inactive means no such curve, though single readings can be large; an effect the other way counts as inactive or inconclusive;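 further: plate controls were enzyme without inhibitor for no effect and buffer without enzyme for full effect; nearly all actives have a fitted effect of over 40% in size; top concentration of the series not given in the record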
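Detergent-free condition (0.00005% Triton X-100) in acetate buffer pH 5.5 with DTT. 1.5 nM enzyme and compound were pre-mixed 15 min, then 2 uM Z-FR-AMC substrate added; reaction progress from fluorescence change between first and third reads (60 s).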
MARV entry inh: inhibitors of Marburg virus binding or cell entry | 300,000 tested, 1.8% active | Potency, µM (doses to about 37.8 µM), for the others: at the top dose activity change, negative = inhibition, actives largely listed as inhibitors | Marburg virus pseudotyped entry inhibition, cell reporter; control for the full effect not named in the record; about a third of the inactives were read at about 46 µM; active = well fitted inhibition curve with a large enough effect; inconclusive = small, poorly fitted or top-dose-only effect, or effect the other way; inactive = flat fitted curve, though single readings scatter; tested in HEK293 cells; about a fifth of its hits are not listed in these tables; further: on the % scale 0 is the no-effect control and ±100 the full control effect; luciferase read-out
RE007 growth inh: less growth of the S. pombe RE007 Vpr strain | S. pombe RE007 Vpr strain, BacTiter-Glo ATP luminescence, 24 h; control for the full effect not named in the record | Potency, µM (highest dose often 92.2 µM), inactives show at the top dose activity change, negative = less growth | AID 651644 | 360,000 tested, 0.21% active; active = well fitted falling curve with a large enough effect; inconclusive = small, poorly fitted or top-dose-only effect; inactive = no such curve, though single readings can be large or run the other way;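 further: on the % scale 0 is the no-effect control and ±100 the full control effect; nearly all actives have a fitted effect of over 50% in size; the assay follows cell death caused by Vpr and the record does not say whether a fall means rescue or toxicity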
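Fission yeast RE007 carrying one integrated HIV-1 vpr copy, seeded at OD 0.01 in PMG+AL medium with 23 nL pinned compound. Grown 24 h at 30 degrees; viability read by BacTiter-Glo luminescence after 5 min.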
SARS PLP yeast: SARS-CoV PLP inhibition in yeast. S. cerevisiae expressing SARS-CoV PLpro, growth rescue; control for the full effect not named in the record. Potency, µM (highest dose often 32.9 µM), for the others: at the highest dose activity, positive = growth rescue. 330,000 tested, 0.19% active. AID 485353; further: 0% is about no effect; nearly all actives have a fitted effect of over 55% in size; growth read by luminescence after 48 h
Lassa entry inh: inhibitors of Lassa virus binding or cell entry | Lassa virus pseudotype entry inhibition, cell reporter; control for the full effect not named in the record | Potency, µM (highest dose often 37.9 µM), without a hit: at the top dose activity change, negative = inhibition, most hits filed as inhibitors | 300,000 tested, 1.2% active; active means well fitted inhibition curve with a large enough effect; inconclusive means small, poorly fitted or top-dose-only effect, or effect the other way; inactive means flat fitted curve, though single readings scatter; tested in HEK293 cells; further: on the % scale 0 is the no-effect control and ±100 the full control effect; nearly all actives have a fitted effect of over 50% in size; luciferase read-out
* hit, by the source's call; ? = inconclusive; · = not tested or not shown; & = joins results of further samples; [ ] = dose if it differs, or a comment. Unless noted, the call rests on the fitted dose curve; in most records, active means well fitted rising curve with a large enough effect; inconclusive means small, poorly fitted or top-dose-only effect; inactive means no such curve, though single readings can be large or run the other way. Potency means the concentration at half of the fitted maximal effect.

SMILES | Cruzain inh Det | NS1 inh | StopGo reporter | Cruzain noTriton | MARV entry inh | RE007 growth inh | SARS PLP yeast | Lassa entry inh
CN(C)c1nc(N(C)C)nc(N(C#N)CCCl)n1 | · | 4% | 0% | · | 14%[46.1 µM] | -6% | -1% | 10%
Cc1nc(SC(C)C(=O)Nc2ccccc2Cl)cc(-c2ccccc2)n1 (stereo not drawn) | -4.5% | · | 0% | -4% | ? | · | · | ?
O=C(Nc1ccc(F)cc1F)c1cncc(Br)c1 | · | -2% | 6% | · | ? | -18% | 0% | 16%[46.1 µM]
CCOc1ccc2[nH]c3c(N4CCc5ccccc5C4)ncnc3c2c1 | · | -5% | -51% | · | 10µM* | ? | -5% | ?
Cc1ccc(S(=O)(=O)/N=C(\CN2CCCCC2)N2CCOCC2)cc1 | -0.4% | 5% | 18% | 19% | 10% | 7% | 1% | -13%
Clc1c(CSc2nc3ccccc3o2)nc2ccccn12 | -1.4% | -127% | -5% | -3% | 0% | · | -10% | ·
CCC1=C(OC(=O)N(CC)CC)N2C(=O)OC(=NCC(=O)OC)[C@]2(C)[C@H]2C1=CC[C@H]1C(=O)N(CC)C(=O)[C@H]12 | -0.6% | 0% | -11% | ? | · | 0% | 2% | ·
O=C1C=CC(=Nc2ccc3c(c2)Cc2cc(F)ccc2-3)O1 | · | · | 11% | · | 7% | 3.2µM* | · | ?
CCOC(=O)c1oc2cc(C)cc(O)c2c(=O)c1-c1csc(C)n1 | -4.3% | -6% | 0% | 8% | 26% | 1% | 3% | 1%
O=C1CSC2(CN3CCC2CC3)N1 (stereo not drawn) | 4.2% | 0% | -10% | -5% | 5% | 11% | 6% | 0%
O=C(Nc1ccc(F)cc1)c1ccc2nsnc2c1 | · | -33% | 1% | · | · | -9% | -2% | ·
CC(C)c1ccc(OCc2cccc(C(=O)N/N=C/c3cccnc3)c2)cc1 | -9.5% | 11% | -20% | ? | 1.4µM* | 8% | -5% | ?
CC(=O)Oc1ccc(C(=O)N2c3ccccc3NC(=O)C2C)cc1 (stereo not drawn) | · | -2% | -13% | · | · | 0% | -2% | ·
O=C(COc1ccc(C(=S)N2CCOCC2)cc1)N1CCOCC1 | · | 1% | -5% | · | ? | -12% | -3% | 3%
O=c1c2ccccc2oc2ncccc12 | -4.3% | -10% | 29% | -6% | ? | 10% | -3% | 19%
COC(=O)c1ccc(NC(=O)Cn2nc(C)cc2C)cc1 | · | 2% | 2% | · | 1%[46.1 µM] | 2% | 2% | 5%
O=C1CCc2cc(S(=O)(=O)N3CCC(C(=O)NCc4ccccc4Cl)CC3)ccc2N1 | -7.2% | -46% | -15% | -9% | · | 1% | 6% | ·
CC12CC3(C)CC(C)(C1)CC(C(=O)NCCc1ccc(S(N)(=O)=O)cc1)(C2)C3 | · | 4% | -6% | · | 5%[46.1 µM] | 31% | 2% | -7%
O=C(NC1CCCCCCC1)c1ccc2c(c1)N(Cc1ccc(F)cc1)C(=O)CS2=O (stereo not drawn) | -3.8% | 0% | -14% | ? | ? | 11% | 12% | -13%
CCc1ccc(S(=O)(=O)NCc2csc(-c3ccccc3)n2)s1 | -8.6% | -50% | 5% | -3% | -1% | -20% | -23% | -19%
COc1ccc(N(Cc2cc3cccc(C)c3[nH]c2=O)S(=O)(=O)c2ccc(OC)cc2)cc1 | · | ? | 13% | · | -17%[46.1 µM] | 2% | 1% | -25%[46.1 µM]
Cc1ccc(S(=O)(=O)CCc2nnc(NC(=O)c3ccco3)s2)cc1 | · | · | 28% | · | 8%[46.1 µM] | 4% | 8% | 12%[46.1 µM]
O=C(O)c1ccc(Oc2c(C(F)(F)F)oc3cc(O)ccc3c2=O)cc1 | · | · | 2% | · | ? | 3% | -1% | 3%
CCn1cc(C(=O)N2CCCC(N3CCN(c4cccc(C(F)(F)F)c4)CC3)C2)cn1 (stereo not drawn) | · | 2% | -24% | · | · | -9% | 15% | ·
COc1ccc2oc(=O)c(-c3nc4ccc(C)cc4[nH]3)cc2c1 | 1.0% | · | 24% | -2% | · | · | · | -5%[46.1 µM]
C#CCCCc1nc2ccccc2c(=O)n1N | -0.9% | 11% | 1% | 0% | ? | -5% | 8% | -1%
Cc1ccc(S(=O)(=O)N(CC(=O)N2CCC(C)CC2)c2cccc(C)c2)cc1 | -0.8% | -58% | 28% | 8% | -29% | -6% | ? | ?
Cc1ccc(C(=O)NNC(=O)c2ccncc2)cc1S(=O)(=O)N1CCCCC1 | · | · | 8% | · | 0% | -15% | · | -9%
COc1ccc(CCNC(=O)CCCn2c(=O)[nH]c3cc(OC)c(OC)cc3c2=O)cc1OC | -3.5% | -9% | -24% | 13% | 23%&23% | -3% | 14% | -1%
O=C1[C@@H]2[C@@H]3C[C@@H]([C@H]4ON=C(c5ccc(Cl)cc5Cl)[C@@H]34)[C@@H]2C(=O)N1C1CCCCC1 | -2.7% | 17% | -18% | 9% | ? | -4% | -30% | ?
Cc1ccc(N2N=C(c3ccc(Br)cc3)CCC2=O)cc1 | -11% | 3% | -22% | -3% | 0% | 1% | -19% | ?
Cc1ccc(CNC(=O)CS(=O)CC(=O)O)cc1 (stereo not drawn) | 2.1% | 8% | 0% | 10% | 20% | 22% | 4% | ?
O=C(Cc1ccc(-n2cccc2)cc1)NCc1cccs1 | 0.6% | 11% | -17% | ? | ? | 10% | -1% | 2%
CC1(C)CC(Nc2ccc(C(F)(F)F)cc2[N+](=O)[O-])CC(C)(C)N1 | · | ? | -16% | · | · | -14% | -1% | ·
COc1cccc(C(O)c2cnc(C(C)C)n2C)c1OC (stereo not drawn) | 6.8% | -3% | · | -5% | ? | -13% | 6% | 13%
CCOC(=O)c1ccc(CNC(=O)C2CCC(=O)N(CCc3ccccc3)C2)o1 (stereo not drawn) | · | 1% | 13% | · | 5%[46.1 µM] | 7% | 6% | -29%[46.1 µM]
Cc1nc(N2CCCC2)c2c(C(=O)N3CCN(c4ccc(F)cc4)CC3)c(C)oc2n1 | 3.2% | · | -17% | -4% | · | · | · | -4%[46.1 µM]
COc1ccc(CCNC(=O)C(=O)NCC2OCCN2S(=O)(=O)c2ccc3c(c2)OCCO3)cc1OC (stereo not drawn) | · | 1% | -12% | · | ? | -15% | 1% | -23%
COc1cc(/C=C/C(=O)O)cc(S(=O)(=O)Nc2ccc3cn[nH]c3c2)c1OC | · | · | -11% | · | 5% | 6% | 3% | 1%
CCOC(=O)c1ccccc1NC(=O)c1cccc([N+](=O)[O-])c1 | · | · | 1% | · | ? | -16% | -2% | 7%[46.1 µM]
Cc1ccc(S(=O)(=O)NNC(=O)C2CCCCC2)cc1 | · | -9% | 16% | · | -5%[46.1 µM] | -3% | 0% | -12%[46.1 µM]
COCCCn1c(=S)[nH]c2sc3c(c2c1=O)CCCC3 | · | -15% | -3% | · | -17%[46.1 µM] | 9% | 0% | 6%[46.1 µM]
O=C(C=Cc1ccccc1)c1cccs1 | · | · | ? | · | ? | ? | · | 19%
COc1ccc(-c2noc(CCC(=O)Nc3ccccc3Cl)n2)cc1OC | 5.1% | · | -26% | 4% | 14%[46.1 µM] | · | · | -3%[46.1 µM]
CN(c1ccc(C(=O)Nc2ccccc2C(=O)N2CCOCC2)cc1)S(C)(=O)=O | -0.2% | 4% | -24% | 22% | ? | -11% | -2% | 18%
CCCN1CCN(C(=O)c2cc3c(s2)-c2ccccc2S(=O)(=O)C3)CC1 | -2.7% | 3% | · | 2% | -9% | · | -6% | ·
COc1ccccc1C(=O)NCCC(=O)NN1C(=O)NC2(CCCCC2)C1=O | · | · | -7% | · | -14% | 20% | 1% | -10%
Cc1ccc(O)c(C(=O)CC(=O)c2ccccc2Cl)c1 | · | -59% | 20% | · | ? | ? | -4% | ?
COc1ccc(CCC(=O)Nc2ccc(C)c([N+](=O)[O-])c2)cc1 | -6.5% | 8% | -12% | -17% | 11% | · | -10% | 12%
Cc1onc(-c2ccccc2)c1CNS(=O)(=O)c1ccccc1 | · | 5% | 30%[activator] | · | -15%[46.1 µM] | -8% | 0% | 0%
CC(=O)c1n[nH]nc1NC(=O)c1ccccc1 | 2.0% | -171% | ? | -3% | 5% | -2% | 1% | -7%
O=C(Oc1cccc(C(=S)N2CCOCC2)c1)c1ccc([N+](=O)[O-])cc1[N+](=O)[O-] | · | -60% | -13% | · | 5%[46.1 µM] | -10% | -33% | -1%
Clc1ccc(Cn2nc(-c3ccccc3)nc2-c2ccccc2)cc1 | -4.5% | -8% | 10% | -5% | ? | -1% | -9% | 12%
COc1ccc(N2CC(C(=O)NCc3cccnc3)CC2=O)cc1 (stereo not drawn) | 6.5% | -2% | -12% | 6% | 10% | -2% | 4% | 6%
COc1ccc(-c2csc(C3=C(O)CN(CCCN4CCCC4=O)C3=N)n2)cc1OC | · | · | 21% | · | 45% | 22% | -1% | -2%
Cc1ccc(-c2nc(C)sc2CC(=O)O)cc1 | 0.8% | -5% | 0% | -8% | 2% | -14% | -9% | -1%
CCC(C(=O)N1CCN(c2cc(C)ccc2C)CC1)n1nc(C)n2c(cc3occc32)c1=O (stereo not drawn) | -9.6% | · | 0% | ? | ? | · | · | -26%[46.1 µM]
Cc1cc(C)cc(OCCSc2nc3ccc(NC(=O)c4ccc5c(c4)OCO5)cc3s2)c1 | -1.3% | · | 7% | 4% | -8%[46.1 µM] | · | · | 12%[46.1 µM]
CCOC(=O)c1c(S(=O)(=O)Nc2ccc(F)cc2C)c(C)n(C)c1C | · | -5% | 53%[activator] | · | · | -1% | -5% | ·
Cn1c(SCC(=O)NCC2CCCO2)ncc(C(=O)Nc2ccccc2)c1=O (stereo not drawn) | · | · | ? | · | ? | -11% | 1% | -14%
O=C(NC1=C(NC2CCS(=O)(=O)C2)C(=O)c2ccccc2C1=O)c1ccccc1 (stereo not drawn) | · | -8% | ? | · | · | -22% | -3% | ·

Random draw from the library; any-hit rate near 4.6%.
